From PubChem
Vaccinia Venus: inhibitors of vaccinia virus (Venus reporter); Potency, µM (doses to about 36.5 µM), for the others: top-dose activity change, negative = inhibition, usual class: inhibitors; AID 720580; 330,000 tested, 0.46% active; Vaccinia virus Venus reporter expression, fluorescence; active means well fitted inhibition curve with a large enough effect; inconclusive means small, poorly fitted or top-dose-only effect; inactive means no such curve, though single readings can be large or run the other way; tested in A549 cells; further: nearly all actives have a fitted effect of over 30% in size; inactives centre near -10
Vaccinia mCherry: vaccinia inhibition (mCherry reporter). Vaccinia virus mCherry reporter infection, fluorescence; about a quarter of the inactives have no number. Potency, µM (doses to about 36.5 µM), without a hit: top-dose activity change, negative = inhibition, usual class: inhibitors. 310,000 tested, 0.63% active; active = well fitted inhibition curve with a large enough effect; inconclusive = small, poorly fitted or top-dose-only effect; inactive = no such curve, though single readings can be large or run the other way; tested in A549 cells; further: nearly all actives have a fitted effect of over 35% in size; inactives centre near -10
The depositor's hits bear a star; i = inactive; ? = inconclusive; · = no result given; & = joins results of further samples; [ ] = remark or other dose. On the % scale 0 is the no-effect control and ±100 the full control effect; potency means the concentration at half of the fitted maximal effect. Rows are unselected; 0.87% or so of the library scored in one or more.

Sample of the layout, two compounds:
SMILES	Vaccinia Venus	Vaccinia mCherry
COC(=O)c1cc(NS(=O)(=O)c2cccs2)cc(NS(=O)(=O)c2cccs2)c1	-5%	i
COc1cc(C(=O)Nc2cc3c(cc2C)n(C)c(=O)c(=O)n3C)cc(OC)c1OC	-2%	-17%

The whole of this part, repeating the preview:
SMILES	Vaccinia Venus	Vaccinia mCherry
COC(=O)c1cc(NS(=O)(=O)c2cccs2)cc(NS(=O)(=O)c2cccs2)c1	-5%	i
COc1cc(C(=O)Nc2cc3c(cc2C)n(C)c(=O)c(=O)n3C)cc(OC)c1OC	-2%	-17%
CCc1noc(C)c1C(=O)N(CCCOC)c1c(N)n(Cc2ccccc2)c(=O)[nH]c1=O	-3%	-16%
Cn1cc(S(=O)(=O)N2CCCCCC2)cc1C(=O)N1CCN(c2cccc(C(F)(F)F)c2)CC1	-25%	-26%
COc1ccc(OCC(O)Cn2c(Br)nc3c2c(=O)[nH]c(=O)n3C)cc1 (configuration not stated)	?	?
COc1ccc(S(=O)(=O)Nc2ccc(S(=O)(=O)NCC3CCCO3)cc2)cc1 (configuration not stated)	6%	-17%
CC(=O)Nc1ccc(NC(=O)c2ccc(NS(=O)(=O)c3cc(C(C)(C)C)ccc3C)cc2)cc1	-2%	i
CCN1C(=O)[C@@H]2[C@@H](c3ccc(-c4ccc(F)cc4)c(OC)c3)N3CCCC[C@@]3(C(=O)OC)[C@@H]2C1=O	?	-9%
CCCC(=O)n1nc(-c2ccco2)nc1N	-21%	·
O=C(O)C1CCCN1c1nc(-c2ccc(Cl)c(Cl)c2)cc(C(F)(F)F)n1 (configuration not stated)	?	?
Cc1cc(C)cc(NC(=O)N2CCC(CN3CCCCCC3)CC2)c1	-9%	-11%
C/C(=C\C(=O)c1ccc(Br)cc1)NCc1ccc(C)cc1	-11%	·
C=CCn1c(N)c(C(=O)NCC2CCCO2)c2nc3ccccc3nc21 (configuration not stated)	-11%	0%
CC(C)(C)NC(=O)C(c1ccc(F)cc1)N(Cc1ccco1)C(=O)CCC(=O)Nc1nccs1 (configuration not stated)	-9%	-19%
Cc1c(C(=O)N2CCCC(C)(C(=O)NS(=O)(=O)C3CC3)C2)oc2ccccc12 (configuration not stated)	4%	i
CCCC(=O)Nc1cccc(S(=O)(=O)N(C)c2ccccc2)c1	-8%	-14%
Cc1ccc(C(=O)COC(=O)CCCC(=O)NC2CCCCC2)cc1[N+](=O)[O-]	-3%	-10%
CC(C)(C)C(=O)O/N=C1/C(=O)N(c2ccccc2)c2ccccc21	?	·
COc1ccc(CNC(=O)CC(C)CC2=NS(=O)(=O)c3ccccc3N2)cc1 (configuration not stated)	-14%&-8%	-5%
Cc1cc(NC(=O)c2ccc3c(c2)OCCO3)cc(-c2nc3ccccc3o2)c1O	-8%	-29%

3 successive entries from above, quoted:
SMILES	Vaccinia Venus	Vaccinia mCherry
COC(=O)c1cc(NS(=O)(=O)c2cccs2)cc(NS(=O)(=O)c2cccs2)c1	-5%	i
COc1cc(C(=O)Nc2cc3c(cc2C)n(C)c(=O)c(=O)n3C)cc(OC)c1OC	-2%	-17%
CCc1noc(C)c1C(=O)N(CCCOC)c1c(N)n(Cc2ccccc2)c(=O)[nH]c1=O	-3%	-16%

Next section.
SMILES	Vaccinia Venus	Vaccinia mCherry
COc1ccc(-n2c(Cc3cc(=O)[nH]c(=O)[nH]3)nnc2SCc2ccccc2)cc1	3%	15%
COc1cc(NC(=O)c2cccs2)c(OC)cc1NC(=O)Cc1ccccc1	-18%	-22%
O=C1/C(=C/c2ccc([N+](=O)[O-])cc2)C=C(c2ccccc2)N1c1ccccc1	-10%	i
Cc1c(O)ccc2c(CC(=O)N[C@@H](Cc3ccc(O)cc3)C(=O)O)cc(=O)oc12	-18%	i
Cc1nc([N+](=O)[O-])cn1-c1ccc(N)cc1	-1%	-10%
O=C(CCNC(=O)c1ccc(Br)cc1)NCc1ccco1	-10%	-9%
O=C(Cn1cnc2cc([N+](=O)[O-])ccc2c1=O)NCc1ccccc1	-9%	-7%
CC(C)(C)c1ccc(/C=N/N2C(=O)CSC2=S)cc1	6%	-9%
Cc1ccc(Cl)cc1NC(=O)CN1C(=O)COc2ccc(S(=O)(=O)N3CCOCC3)cc21	-8%	1%
Cc1ccc(Cn2c(=N)c(C(=O)NCC3CCCO3)cc3c(=O)n4ccccc4nc32)cc1 (configuration not stated)	-14%	-12%
COc1ccc(Cc2c(C3CCCCC3)nc3c4ccccc4ccn23)c(C)c1	-1%	50%[activator]
CCc1cnc2c(c1SCC(=O)c1ccccc1)c(=O)n(C)c(=O)n2C	-9%	-8%
Cc1ccc(C)n1NC(=O)c1ccccc1Cl	17%	·
COc1ccc(NC(=O)CCn2ccnc2)c(OC)c1	-14%	-1%
O=C(NNCC(O)COc1ccccc1)c1ccccc1 (configuration not stated)	-18%	-8%
COc1ccccc1N1CCN(c2ccc(=O)n(CC(=O)NCc3ccc(F)cc3)n2)CC1	-7%	-11%
CC(C)c1nn2c(=O)cc(CSc3ccccc3NC(=O)c3ccccc3F)nc2s1	-21%	-18%
COc1cc2c(cc1OC)CN(CC(=O)Nc1ccc(C#N)cc1)CC2	?	-14%
CCCCn1c(=O)c(C(=O)OCC)c(O)c2ccccc21	-6%	-2%
CN(C)CCCNC(=O)N1c2ccccc2Sc2ccccc21	-9%	?
Cc1ccc2nsnc2c1NC(=O)c1ccccc1[N+](=O)[O-]	-5%	i
COC(=O)c1cn(C(=O)OC)c2ccccc12	0%	-12%
COc1ccc(C(=O)N2CC(=O)Nc3ccc(F)cc3C2c2ccc(F)cc2)c(OC)c1 (configuration not stated)	-12%	-3%
O=C(NC1CCCCC1)NC1CC2CCCC(C1)N2C1CCCC1 (configuration not stated)	-6%	-19%
Cc1nnc(NC(=O)Nc2cccc(Cl)c2)s1	?	·
COc1ccc(S(=O)(=O)Nc2cc3c4c(c2)CC(=O)N4CCC3)cc1	-14%	-4%
COc1cccc(C(C(=O)NCc2ccccc2)N2CCN(CCN3CCOCC3)CC2)c1OC (configuration not stated)	-17%	-7%
CN1C(C(=O)NCc2ccco2)CC2Cn3c(nc4cc(Cl)c(Cl)cc43)C21 (configuration not stated)	-8%	1%
Cc1cc(N)n(-c2ccc(C(=O)O)cc2)n1	-7%	-11%
COc1ccccc1N1CCN(CCCNC(=O)Cn2ncc3c([nH]c4ccccc43)c2=O)CC1	-12%[7.34 µM]	-13%[7.34 µM]
CCOc1ccc(NC(=O)c2ccc(NC(=O)c3cn4c5c(c(N6CCN(C)CC6)c(F)cc5c3=O)OCC4C)cc2)cc1 (configuration not stated)	-9%	-13%
CCCNC(=O)c1nn2cc(Br)cnc2c1Cl	-10%	-6%
CCNC(=O)c1ccc(OCC(=O)Nc2ccc(F)cc2)c(OC)c1	4%	6%
COCC(=O)NC1CCN(CC(=O)Nc2ccc(OC)cc2[N+](=O)[O-])CC1	2%	-17%
CC(=O)Nc1ccc2nc(SCCOc3ccccc3)sc2c1	-15%	-19%
Clc1ccc(-c2nnc(C3CC3)o2)cc1	-5%	i
CCC(Sc1nc(=O)cc(N)n1-c1ccccc1)C(=O)Nc1cc(C)on1 (configuration not stated)	-3%	-14%
CSc1ccc(NC(=O)C2(C)CCN2C(=O)c2sccc2C)cc1 (configuration not stated)	-3%	i
Cc1cccc2c1=NC(=O)/C(=C/c1c(O)[nH]c(=O)[nH]c1=O)C=2	-10%	i
COc1ccccc1CNC(=O)CN1C(=O)CCn2nc(-c3ccccc3)cc21	-9%	-10%

Another view of part of the listing above.
molecule | Vaccinia Venus | Vaccinia mCherry
COCC(=O)NC1CCN(CC(=O)Nc2ccc(OC)cc2[N+](=O)[O-])CC1 | 2% | -17%
CC(=O)Nc1ccc2nc(SCCOc3ccccc3)sc2c1 | -15% | -19%

Some of the entries so far, as a markdown table:
| SMILES | Vaccinia Venus | Vaccinia mCherry |
| --- | --- | --- |
| COCC(=O)NC1CCN(CC(=O)Nc2ccc(OC)cc2[N+](=O)[O-])CC1 | 2% | -17% |
| CC(=O)Nc1ccc2nc(SCCOc3ccccc3)sc2c1 | -15% | -19% |

More compounds follow:
SMILES	Vaccinia Venus	Vaccinia mCherry
COCCn1c(C(=O)N(C)C)cc2c1C[C@H]1CN(C(=O)c3ccccc3)[C@@](Cc3ccc(F)cc3)(C(=O)OC)[C@@H]21	-2%	-4%
O=C(CC(Nc1ccc(F)cc1)C(=O)OCC(=O)c1cccs1)c1ccccc1 (configuration not stated)	-4%	-16%
COc1cc(/C=C/C(=O)OCC(=O)NCC2CCCO2)ccc1OCC#N (configuration not stated)	-7%	i
CCCc1nnc(NC(=O)CCC(=O)N2CCN(S(=O)(=O)c3ccc(OC)cc3)CC2)s1	-4%	-14%
Cc1ccc(Cl)cc1N1CCN(S(=O)(=O)c2ccc3c(c2)NC(=O)C(C)C(=O)N3)CC1 (configuration not stated)	-24%	?
Cc1csc2c(N3CCN(C(=O)Nc4ccc(OC(F)(F)F)cc4)CC3)ncnc12	-26%	-29%
OCCN1CCN(c2ncnc3ccc(Br)cc23)CC1	-10%	i
CCCCc1cc(=O)oc2cc(OCC(=O)N[C@@H](Cc3ccccc3)C(=O)O)ccc12	-5%	2%
COCCNC(=O)CN1C(=O)COc2ccc(Cl)cc21	-4%	11%
CCOC(=O)c1c(C)[nH]c(C)c1S(=O)(=O)NCC(=O)Nc1cc(C)ccc1OC	-3%	-5%
O=C(CSc1nnc(-c2ccncc2)n1-c1ccc(F)cc1)NNC(=O)c1cccc(O)c1	-20%	-11%
COc1ccc(/C=C/C(=O)Nc2ccc(Cl)c(Cl)c2)cc1OC	-15%	-13%
COc1ccc(OC)c(NC(=O)C2(C)CCN2Cc2ccc(OC)c3ccccc23)c1 (configuration not stated)	6%	i
O=C(c1cc2c(F)cccc2s1)N1CCCC1	2%	0%
CCc1ccc(NC(=O)c2ccc(F)c(S(=O)(=O)N3CCC4(CC3)OCCO4)c2)cc1	?	?
Cc1cnn(-c2ccc3nnc(-c4ccc(Cl)cc4)n3n2)c1	-8%	·
COc1ccc(NC(=O)CSCC(=O)OCc2cccc(OC)c2OC)cc1	-11%	i
O=C(NCCCN1CCOCC1)c1ccc(NS(=O)(=O)c2ccccc2)cc1	-4%	-11%
COc1ccc(C2(O)CCN(CCCCOc3ccccc3)CC2)cc1	-14%	i
COc1cccc(F)c1C(=O)NC(=O)Nc1ccc2nc(C)oc2c1	-17%	-8%
COc1ccc(C2CC(O)(C(C)(C)O)NO2)cc1 (configuration not stated)	-10%	-24%
COc1ccc(CNC(=O)C2CCN(c3nc(-c4ccccc4)nc4c3CCC4)CC2)cc1	-14%	i
O=c1cc2c(=O)oc3cc(O)c(O)oc3c2c(O)c1O	-9%	-11%
CCOC(=O)CS(=O)(=O)CC(=O)Nc1ccc([N+](=O)[O-])cc1OC	-23%	-18%
C[C@H]1NC(=O)[C@@]2(C)[C@@H](c3ccccc3)[C@H]3COc4ccccc4[C@@H]3N2C1=O	-4%	i
COC(=O)c1ccccc1NC(=O)N1CCN(C/C=C/c2ccccc2)CC1	-8%	-14%
CC(C)(C)OC(=O)[C@H](CCCCN)NC(=O)c1nc[nH]c1C(=O)NCCCCCN	?	i
O=C(NCCc1ccccc1)C(=Cc1ccc(C(=O)O)cc1)C(=O)NCCc1ccccc1	-3%	3%
O=C1CC(C2CCCO2)C(=O)N1c1ccccc1 (configuration not stated)	-19%	-1%
COCC(C)NC(=O)CSc1nc(-c2ccccc2)c(-c2ccccc2)o1 (configuration not stated)	-17%	-5%
CCOC(=O)/C=C1\SCC(=O)N1CC(=O)NC(C)C	1%	-4%
